Screening data from PubChem BioAssay.
Mtb betalactam: beta-lactam sensitization of Mtb H37Rv | AID 434955 | actives 0.27% (n = 330,000) | inhibition, % at 25 µM | M. tuberculosis H37Rv growth with meropenem, percent inhibition; hits of this screen are not shown here;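 active means about 74% or more and at least 40 points above the plate without the antibiotic, then above 30% in a dose series; inconclusive means first-round hits that could not be retested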;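 further: growth measured after seven days incubation then overnight dye step; 0% = bacteria only wells and 100% = bacteria with antibiotic; twin plates without the antibiotic show which effects depend on it; some results filed as inactive read as strong as hits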
Numbers without * were called inactive; ? = inconclusive.

SMILES	Mtb betalactam
CC1(C)CC(NC(=O)C2CCN(S(=O)(=O)c3cccc(C(F)(F)F)c3)CC2)CC(C)(C)N1	6
O=C(COC(=O)C1CC1)Nc1ccc(Cl)cn1	24
O=C1OC[C@H]2CCCN2C(=O)[C@@H](CC(=O)N(CCO)Cc2ccccc2)C/C=C\CC[C@H]1Cc1ccc(F)cc1	-2
Cc1onc(-c2ccccc2)c1C(=O)N(CC(C)C)c1c(N)n(CC(C)C)c(=O)[nH]c1=O	-1
C#CCN1C(=O)S/C(=C\c2ccc(-c3ccc(Cl)c(C(=O)O)c3)o2)C1=O	0
O=C(c1ccc(=O)[nH]c1)N1CCN(S(=O)(=O)c2ccc3ccccc3c2)CC1	-1
CC1(C)CC(=O)C=C(c2ccc(F)nc2)C1	3
O=C(COC(=O)c1nc(Cl)c(Cl)c(Cl)c1Cl)NCc1ccccc1	4
CC(NC(=O)COC(=O)CCC(=O)c1ccc(F)cc1)c1ccccc1 (stereo not drawn)	2
CCN(CC(=O)NCc1cccs1)S(=O)(=O)c1cccc(Br)c1	-10
C=CCC[C@@H](Cc1ccc(F)cc1)C(=O)OC[C@@H](Cc1ccccc1)NC(=O)[C@@H](CC=C)CC(=O)N[C@@H](CO)Cc1ccccc1	9
O=C(CCNC(=O)c1ccc([N+](=O)[O-])cc1)NCCc1ccccc1	-7
Cc1c(C(=O)Nc2ccc(S(=O)(=O)N(C)C3CCN(C)CC3)cc2)oc2ccccc12	28
CC(NC(=O)COC(=O)c1cc(Cl)ccc1O)C1CC2CCC1C2 (stereo not drawn)	-7
CCOCc1nnc(NC(=O)CCS(=O)(=O)Cc2ccccc2)s1	-3
CCCCN1C(=N)N([C@@H](C)CN2CCC[C@H]2CN2C(N)=NC[C@H]2C(C)C)C[C@H]1[C@H](C)CC	-6
O=C(NC(=S)/C(=C1\CCCCCN1)[N+](=O)[O-])c1ccccc1	2
O=C(COc1ccc([N+](=O)[O-])cc1)Nc1ccccc1C(=O)NC1CC1	-10
CN(CC(=O)Nc1cccc(F)c1)CC(=O)Nc1cccc(S(=O)(=O)N2CCCCC2)c1	-11
N[C@@H]1CC[C@@]2(O)[C@H]3Cc4ccc(O)c5c4[C@@]2(CCN3CC2CC2)C1O5 (stereo partly drawn)	-5
O=C(COC(=O)/C=C/c1ccc(F)cc1)NCc1ccc2c(c1)OCO2	-1
Cc1cccc(N(Cc2ccccc2)C(=O)c2ccc(C)c(S(=O)(=O)N3CCOCC3)c2)c1	-2
C=C1[C@H]2CC[C@H]3[C@]4(C)C[C@H](O[C@@H]5OC(CO)[C@@H](OSOOO)[C@H](OS(=O)(=O)O)[C@H]5OC(=O)CC(C)C)C[C@@H](C(=O)O)[C@H]4CC[C@]3(C2)[C@H]1O (stereo partly drawn)	1
O=C(C[C@@H]1C/C=C/CC[C@@H](Cc2ccc(F)cc2)C(=O)OC[C@H](Cc2ccccc2)NC1=O)N[C@H](CO)Cc1ccccc1	4
N#Cc1ccccc1COC(=O)c1cccc(S(=O)(=O)N2CCCC2)c1	-3
The list continues.
SMILES	Mtb betalactam
O=C(NCCc1ccc(OC(F)F)cc1)C1CC(=O)N(c2ccc3c(c2)OCCO3)C1 (stereo not drawn)	-3
C[N+](C)(C)CC=O	-7
Cc1cc(NC(=O)CCC(=O)N(CC(=O)NC2CCCC2)c2ccc(C)c(F)c2)no1	-2
COc1cc(OC)cc(-c2c(C#Cc3ccsc3)c3cc(-c4ccc(OC)cc4F)ccc3n2C)c1	-4
COc1ccc(NC(=S)NC(=O)c2ccc3c(c2)OCCO3)cc1	-6
CN(CC(=O)Nc1ccccc1C(F)(F)F)C(=O)CN1C(=O)C2CCCCC2C1=O (stereo not drawn)	-5
COc1ccccc1CNC(=O)C(c1ccccc1)c1ccccc1	-8
CCc1nc2ccccc2n1CC(=O)NC1CCS(=O)(=O)C1 (stereo not drawn)	1
O=S(=O)(c1ccc(Br)cc1)c1nc(-c2ccccc2)oc1NCCN1CCOCC1	?
COc1ccc(C(CNc2ccc(C(F)(F)F)cn2)N(C)C)cc1OC (stereo not drawn)	2
CN1CCC(N(C)C(=O)c2cccc(S(=O)(=O)N3CCOCC3)c2)CC1	-3
COc1ccc(-c2csc(Nc3ccccc3)[n+]2CC(O)c2ccc([N+](=O)[O-])cc2)cc1 (stereo not drawn)	5
CC(C)(C)OC(=O)C[C@@H]1C/C=C\C[C@H](CC(=O)NCCO)C(=O)N[C@@H](Cc2ccccc2)COC1=O	3
O=C(COc1cccc(F)c1)NNC(=O)Cc1ccc(Br)cc1	2
O=C(Nc1ccc(N2CCCCC2)cc1)C1CCCN1S(=O)(=O)c1ccc(F)cc1 (stereo not drawn)	-12
COc1ccc(NC(=O)c2cc(-c3ccccn3)nc3ccccc23)c(OC)c1	26
COc1ccc(NC(=O)COC(=O)C2CC(=O)N(c3ccc(C)cc3)C2)cc1 (stereo not drawn)	1
Cc1nc(SCC(=O)NCC2CCCO2)c2c3c(sc2n1)CCCC3 (stereo not drawn)	99
COc1cc(CC(=O)OCC(=O)NCc2ccc(C)cc2)cc(OC)c1OC	-2
CC12CCC(CC1=O)C2(C)C (stereo not drawn)	0
CC(Sc1nnc(-c2ccccc2F)n1C)C(=O)NC1CCCCC1 (stereo not drawn)	6
CCOC(=O)c1c(C)[nH]c(C)c1C(=O)COC(=O)c1sccc1C	3
N#CC1=C(N)Oc2cc(N)ccc2C1c1ccc(F)cc1F (stereo not drawn)	-5
CN(C)C(=O)c1ccc(-c2cc3onc(-c4ccccc4)c3c(=O)n2C)cc1	5
O=C(O)/C(=C\c1ccco1)NC(=O)c1ccc(Br)o1	-2
Continued:
SMILES	Mtb betalactam
C[C@@H]1CN([C@H](C)CO)C(=O)c2cc(NC(=O)Nc3ccc(C(F)(F)F)cc3)ccc2O[C@H]1CN(C)S(=O)(=O)c1cccs1	97
CC1CCCN(C(=O)CSc2nnc3ccccn23)C1 (stereo not drawn)	-1
Cc1cc(C)n2nc(SCC(=O)Nc3ccccc3F)nc2n1	-7
CCCN(C(=O)c1cccs1)c1c(N)n(Cc2ccccc2)c(=O)[nH]c1=O	-2
O=C(CSc1ccccc1F)NC(=O)c1ccccc1Br	-3
C[C@H](CO)N1C[C@H](C)[C@@H](CN(C)C(=O)Nc2ccc(C(F)(F)F)cc2)Oc2c(NC(=O)CCC(F)(F)F)cccc2C1=O	0
CC(C)[C@H](NC(=O)c1ccccc1)C(=O)OCC(=O)c1c(N)n(C)c(=O)n(C)c1=O	4
COC1=C[C@@H]2C3=C([C@@H]2C1=O)[C@@H](NC(C)=O)CCc1cc(OC)c(OC)c(OC)c13	-1
COC(=O)C1=C(c2ccc(C(C)=O)cc2)C[C@@H]2CC[C@H]1N2C(=O)NC(C)C	1
CC(C)C[C@H]1CN=C(Nc2ccccc2)N1CC1CCCCCC1	0
Clc1cccc(CN2CCc3c([nH]c4ccccc34)C2)c1	5
COc1cccc(C(=O)OCC(=O)c2c[nH]c3ccccc23)c1OC	-10
Cc1ccc(C)c(OCCC(=O)OCC(=O)Nc2cc(S(=O)(=O)N3CCCCC3)ccc2C)c1	0
COc1cccc(NC(=O)CN(C)C(=O)c2ccc(NC3CC3)c([N+](=O)[O-])c2)c1	3
CCOc1cc(C(=O)N(CC)CC(=O)Nc2ccc3c(c2)OCCO3)ccc1OC	2
C=CC[C@H](CC(=O)N(CCO)Cc1ccccc1)C(=O)N[C@H](COC(=O)[C@H](CC=C)CC(=O)OC(C)(C)C)Cc1c[nH]c2ccccc12	-6
CCC/C(C#Cc1cc(OC)cc(OC)c1)=C1/c2ccccc2C(=O)N1c1ccccc1	-1
CCC1(c2ccccc2)C(=O)NC(=O)NC1=O	-3
Cc1ccccc1S(=O)(=O)N1[C@@H](c2ccc(Br)cc2)C(C(=O)O)=CC[C@H]1c1ccc(Cl)cc1	7
CCn1nc(C(=O)NNS(=O)(=O)c2cc(/C=C/C(=O)O)cc(OC)c2OC)c2ccccc2c1=O	5
Cn1cccc1C(=O)OCC(=O)c1c[nH]c2ccccc12	5
C/C=C(/C)C(=O)OC1CC(C)(C)C[C@H]2C3=CC[C@@H]4[C@@]5(C)CCC(O[C@@H]6O[C@@H](C(=O)O)[C@@H](O)C(O[C@@H]7OC[C@H](O)[C@@H](O)[C@@H]7O[C@@H]7OC(CO)C(O)[C@@H](O)[C@@H]7O)C6O[C@@H]6OC(CO)C(O)C(O)C6O)[C@@](C)(CO)[C@@H]5CC[C@]4(C)[C@]3(C)CC(O)[C@@]12CO (stereo partly drawn)	-1
O=C1CN(C(=O)COC(=O)c2ccc(Cl)c(S(=O)(=O)N3CCCCC3)c2)c2ccccc2N1	-10
Cc1ccc(S(=O)(=O)N2CCN(C(=O)C(C)Cn3nc(C)c(C)c3C)CC2)cc1 (stereo not drawn)	0
CC(=O)Nc1ccc(C(=O)COC(=O)c2nc3nc(C)cc(C)n3n2)cc1	-7

Quoted at random: six records from the list.
SMILES	Mtb betalactam
CCC/C(C#Cc1cc(OC)cc(OC)c1)=C1/c2ccccc2C(=O)N1c1ccccc1	-1
Cn1cccc1C(=O)OCC(=O)c1c[nH]c2ccccc12	5
COC(=O)C1=C(c2ccc(C(C)=O)cc2)C[C@@H]2CC[C@H]1N2C(=O)NC(C)C	1
Cc1cc(C)n2nc(SCC(=O)Nc3ccccc3F)nc2n1	-7
Cc1ccccc1S(=O)(=O)N1[C@@H](c2ccc(Br)cc2)C(C(=O)O)=CC[C@H]1c1ccc(Cl)cc1	7
CC(C)C[C@H]1CN=C(Nc2ccccc2)N1CC1CCCCCC1	0

(further entries)
SMILES	Mtb betalactam
O=C(c1cccc(S(=O)(=O)Nc2ccc(F)cc2)c1)N1CCCC1	-1
COC(=O)[C@]1(CC(C)C)N[C@H](c2ccc(SC3CCCCC3)cc2)[C@@H]2C(=O)N(C)C(=O)[C@@H]21	3
Cc1cccc(CCN2C(N(C)C)=NC[C@@H]2C)c1	-12
Cc1ccc(C(=O)CN2C(=O)NC3(CCOc4ccccc43)C2=O)s1 (stereo not drawn)	-4
COc1cccc(/C=C/C(=O)OCC(=O)NCCC2=CCCCC2)c1OC	1
COc1cccc(NC(=O)CN(C)C(=O)Cc2n[nH]c(=O)c3ccccc23)c1	1
CC(=O)O[C@H](COc1c2ccoc2cc2oc(=O)ccc12)C(C)(C)O	-1
CN(CC1COc2ccccc2O1)C(=O)CSc1ncnc2sccc12 (stereo not drawn)	5
COc1ccc(OCC(=O)NNC(=O)C2CCN(c3ncnc4sc(C)c(C)c34)CC2)cc1	5
CC(Oc1ccccc1)C(=O)NC1CCSc2ccccc21 (stereo not drawn)	3
OCC[C@H]1C[C@H](O)[C@@H](O)[C@@]2(Cc3ccccc3CO2)O1	-10
Cc1cc(C(=O)Nc2ccc(Br)cn2)sc1C	8
CC1CCC2(CC1)NC(=O)N(CC(=O)Nc1cccc(S(=O)(=O)N3CCCCC3)c1)C2=O (stereo not drawn)	-2
Cc1ccccc1[N+](=O)[O-]	0
COc1ccc(S(=O)(=O)N2CCN(C(=O)c3cc4c(s3)CCCC4)CC2)cc1	4
CCOC(=O)C1=CC[C@@H](c2cc3cc(OC)ccc3n2C)N(S(=O)(=O)c2ccc(C)cc2)[C@H]1C(=O)OCC	8
Cc1ccc(N2CCN(C(=O)c3cccs3)CC2)c(C)c1	-7
COc1ccccc1N1CC(C(=O)NCCC2=CCCCC2)CC1=O (stereo not drawn)	-5
CC1CCCN(C(=O)C2CCN(C(=O)Nc3ccccc3)CC2)C1 (stereo not drawn)	-6
COc1ccc(CCNC(=O)COC(=O)Cc2ccccc2F)cc1	-7
Nc1ncnc2c1ncn2[C@@H]1O[C@H](COS(=O)(=O)O)[C@@H](O)[C@H]1O	-9
C/C=C(/C)C(=O)O[C@@H]([C@H](O)c1cc2ccc(=O)oc2cc1OC)C(C)(C)O[C@@H]1O[C@H](CO)[C@@H](O)[C@H](O)[C@H]1O	0
CN(CC(=O)Nc1ccc(F)cc1)CC(=O)N1CCCC1	3
CC1CCN(CC(O)COc2ccc(-c3ccccc3)cc2)CC1 (stereo not drawn)	-7
COc1ccc(CN2CCc3ccccc3C2)cc1Br	-2
Next section:
SMILES	Mtb betalactam
CCN(CC)S(=O)(=O)c1ccc(C(C)NC(=O)C2CCCN2C(=O)c2cccs2)cc1 (stereo not drawn)	-1
O=C(Nc1cc(-c2ccccc2)nn1-c1c(Cl)cccc1Cl)c1ccc(F)cc1	4
CC(=O)N1CCN(C(=O)COC(=O)c2oc3ccccc3c2C)CC1	-1
COC(=O)C1=C(c2c(C)noc2C)C[C@@H]2CC[C@H]1N2C(=O)NC1CC1	-1
CCN(C(=O)c1ccccc1F)c1nc(-c2ccc(OC)cc2)cs1	0
O=C(NCCc1ccccn1)c1nc(Cn2cc([N+](=O)[O-])cn2)no1	0
Cc1ccc(NS(=O)(=O)c2c(F)cc(F)c(Cl)c2F)cc1S(=O)(=O)N1CCOCC1	0
CCCN(CC(=O)Nc1ccc(F)c(F)c1F)C(=O)c1ccc2c(c1)NC(=O)CS2	4
CC(=O)c1ccccc1NC(=O)COC(=O)c1cc[n+]([O-])cc1	-6
C#CCCC(=O)c1ccccc1/C=[N+](\[O-])c1ccccc1	-3
CC(=O)c1ccc(S(=O)(=O)NCC2(N3CCOCC3)CCCCC2)cc1	4
Cc1c(Cl)cccc1N1C(=O)CC(NNC(=O)c2ccc3c(c2)OCO3)C1=O (stereo not drawn)	-6

Of the compounds above, these contain a CF3 group:
SMILES	Mtb betalactam
CC1(C)CC(NC(=O)C2CCN(S(=O)(=O)c3cccc(C(F)(F)F)c3)CC2)CC(C)(C)N1	6
CN(CC(=O)Nc1ccccc1C(F)(F)F)C(=O)CN1C(=O)C2CCCCC2C1=O (stereo not drawn)	-5
COc1ccc(C(CNc2ccc(C(F)(F)F)cn2)N(C)C)cc1OC (stereo not drawn)	2
C[C@@H]1CN([C@H](C)CO)C(=O)c2cc(NC(=O)Nc3ccc(C(F)(F)F)cc3)ccc2O[C@H]1CN(C)S(=O)(=O)c1cccs1	97
C[C@H](CO)N1C[C@H](C)[C@@H](CN(C)C(=O)Nc2ccc(C(F)(F)F)cc2)Oc2c(NC(=O)CCC(F)(F)F)cccc2C1=O	0

A portion of the library; rates above refer to the full screens.
